Rango-impB inh: qHTS Assay for Inhibitors of Rango (Ran-regulated importin-beta cargo) - Importin beta complex formation; Rango CFP/YFP FRET sensor + importin beta, 45 min; Potency, µM (doses to about 92.2 µM), for the others: at the top dose inhibition of complex formation; hit rate 0.031% among 340,000; AID 540263, 2011; active = rising FRET ratio curve, often small or poorly fitted; inconclusive = mostly compound fluorescence or quenching in the first reads; inactive = flat curves in all reads;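 note: potency is the fitted concentration of half-maximal effect; 0% = DMSO wells and 100% = buffer wells lacking importin beta; nearly all actives have a fitted effect of over 15% in size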
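Inhibition scored from the CFP 486 nm/YFP 530 nm FRET ratio 45 min after adding 0.125 microM importin beta to 50 nM Rango biosensor preincubated 5 min with compound (room temperature, PBS with DTT, Tween-20, BSA). No-importin wells as positive control.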
Rango release inh: qHTS Assay for Inhibitors of RanGTP induced Rango (Ran-regulated importin-beta cargo) - Importin beta complex dissociation; Snurportin-1 (Homo sapiens) + GTP-binding nuclear protein Ran (Homo sapiens) + Importin …; Biochemical FRET Rango-importin beta, RanGTP-induced dissociation; Potency, µM (titrated, usually from 46.1 µM), without a hit: top-dose activity change, negative = inhibition; hit rate 0.071% among 340,000; active means falling FRET ratio curve, often poorly fitted, with flat reads before Ran was added; inconclusive means other falling curves, or compound fluorescence or quenching; inactive means flat or rising ratio curve;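 note: potency is the fitted concentration of half-maximal effect; % of control where 0% means no effect; nearly all actives have a fitted effect of over 45% in size; -100% = wells without RanGTP and RCC1; the record marks most hits as doubtful in a second field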
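Compounds sat 5 min at room temperature with 0.1 uM Rango biosensor plus 0.25 uM importin beta, then FRET pre-read. RanGTP-RCC1 (0.6 uM Ran, 2mM GTP, 0.2 uM RCC1) added for 45 min, and the CFP/YFP post-read measured blocked complex dissociation.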
miR-21 reporter: qHTS Assay for Modulators of miRNAs and/orActivators of miR-21; HeLa miR-21 FLuc reporter, luciferase, 48 h; Potency, µM (titrated, usually from 38.3 µM), inactives show at the top dose reporter change, positive = more light; 340,000 tested, under 10 active; active = well fitted rising curve with a large enough effect; inconclusive = small, poorly fitted or top-dose-only effect; inactive = no such curve, though single readings can be large or run the other way;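 note: % of control where 0% means no effect; miR-21 action dims this reporter so a rising signal means less miR-21 action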
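HeLa miR-21-FLuc reporter line, endogenous miR-21; 2000 cells/well in DMEM/10% FBS; compound titration up to ~40uM final, 48 h, 37 degree Celsius; luciferase detection reagent, 15 min lysis, CCD luminescence.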
GLA inh pH 4.5: qHTS Assay for Inhibitors of Human alpha-Galactosidase at pH 4.5 | Alpha-galactosidase A (Homo sapiens), P06280 | purified enzyme, 4-MU-alpha-Gal fluorescence, pH 4.5 | activity change, negative = inhibition, % at 105 µM | 230,000 tested, under 10 active | AID 1467, 2008; inconclusive = small, poorly fitted or top-dose-only inhibition, or a rising curve; inactive = flat fitted curve, though single readings scatter; no compound was filed as active;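 note: 0% = full activity with enzyme and -100% = basal without enzyme; dose as in the result columns while the protocol names 77 µM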
Target sequence (P06280 whole entry, looked up): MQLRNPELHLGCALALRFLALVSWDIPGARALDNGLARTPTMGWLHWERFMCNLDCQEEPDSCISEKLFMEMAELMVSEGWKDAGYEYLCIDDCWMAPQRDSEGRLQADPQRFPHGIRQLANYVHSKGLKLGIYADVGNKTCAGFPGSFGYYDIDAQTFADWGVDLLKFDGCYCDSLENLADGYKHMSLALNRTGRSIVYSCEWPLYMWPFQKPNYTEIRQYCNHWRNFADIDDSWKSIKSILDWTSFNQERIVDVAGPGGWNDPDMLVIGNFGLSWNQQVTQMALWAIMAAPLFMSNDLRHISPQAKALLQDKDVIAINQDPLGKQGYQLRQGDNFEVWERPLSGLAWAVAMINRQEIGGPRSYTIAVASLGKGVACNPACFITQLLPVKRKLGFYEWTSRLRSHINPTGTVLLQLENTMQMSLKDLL
Active calls of the source: *; ? = inconclusive; nt = no result given; & = joins results of further samples. These rows are one share of the data; rates above refer to the full screens.

The opening four compounds, to show the layout:
Rango-impB inh,Structure,Rango release inh,miR-21 reporter,GLA inh pH 4.5
-1.0%,Cc1cc(C)cc(C(=O)OCC(=O)N2CCCC2)c1,8%,-7%,nt
?,COc1ccc(/C=c2\sc3nc(-c4ccccc4OC)nn3c2=O)c(OC)c1,-12%,-11%,1
?,N#C/C(=C/c1ccc(N2CCCCC2)o1)c1cccc(F)c1,?,-23%,2
-4.3%,O=[N+]([O-])c1cc2c(cc1CN1CCN(c3ccccc3)CC1)OCO2,16%,-45%,nt

The listing, from the start:
Rango-impB inh,Structure,Rango release inh,miR-21 reporter,GLA inh pH 4.5
-1.0%,Cc1cc(C)cc(C(=O)OCC(=O)N2CCCC2)c1,8%,-7%,nt
?,COc1ccc(/C=c2\sc3nc(-c4ccccc4OC)nn3c2=O)c(OC)c1,-12%,-11%,1
?,N#C/C(=C/c1ccc(N2CCCCC2)o1)c1cccc(F)c1,?,-23%,2
-4.3%,O=[N+]([O-])c1cc2c(cc1CN1CCN(c3ccccc3)CC1)OCO2,16%,-45%,nt
4.2%,O=C(CCCOc1ccccc1)Nc1ncccn1,25%,-22%,-8
-0.6%,O=C(O)c1cccc([N+](=O)[O-])c1C(=O)Nc1cccc2ccccc12,-19%,-12%,nt
0.3%,Cc1ccc(NC(=O)CCCC2CCCCC2)c(O)c1,17%,-57%,nt
4.6%,O=C(NCc1ccncc1)C1CCN(S(=O)(=O)c2ccc(Cl)c(C(F)(F)F)c2)CC1,-18%,nt,nt
5.4%,COc1ccc(Br)cc1C(C[N+](=O)[O-])c1c(N)n(C)c(=O)n(C)c1=O (stereo not drawn),-14%,?,3
9.0%,Cc1c(Cl)cccc1NC(=S)N(Cc1cccs1)C1CCCC1,14%,0%,-10
0.0%,CN(C)CCCN(C(=O)c1ccc(S(=O)(=O)N(C)C)cc1)c1nc2cc3c(cc2s1)OCO3,10%,3%,-16
-0.1%,CCCS(=O)(=O)N1CCCC(C(=O)NCCCN2CCCC2=O)C1 (stereo not drawn),2%,-4%,-3
-0.8%,Cc1ccc(OCCSc2nc3ccccc3n2CCC(=O)O)cc1,-9%,-8%&-11%,nt
1.9%,O=C(CCCc1cccs1)N1CCN(S(=O)(=O)c2ccccc2Br)CC1,-7%,-3%,-17
0.6%,Cc1ccc(NC2=NCC(=O)N2C2CCCC2)cc1,8%,-13%,8

2 records picked at random from those above, as already listed:
Rango-impB inh,Structure,Rango release inh,miR-21 reporter,GLA inh pH 4.5
?,COc1ccc(/C=c2\sc3nc(-c4ccccc4OC)nn3c2=O)c(OC)c1,-12%,-11%,1
-0.6%,O=C(O)c1cccc([N+](=O)[O-])c1C(=O)Nc1cccc2ccccc12,-19%,-12%,nt

More results
Rango-impB inh,Structure,Rango release inh,miR-21 reporter,GLA inh pH 4.5
11%,Nc1ccc(NC(=O)c2cccs2)c(Cl)c1,6%,-34%,-15
-2.0%,O=P1(NC2CCCCC2)OCC2(CO1)COP(=O)(NC1CCCCC1)OC2 (stereo not drawn),13%,nt,nt
-0.4%,COc1cccc(C2c3[nH]c4ccccc4c3CCN2C(=O)c2ccccc2F)c1OC (stereo not drawn),-5%,-6%,nt
0.0%,CCN1CCN(CCC(=O)Nc2ccc(F)c(F)c2)CC1,11%,3%,nt
-2.3%,Cc1c(NC(=O)COC(=O)CCC(=O)c2ccc(Cl)cc2)c(=O)n(-c2ccccc2)n1C,27%,9%,7
-1.4%,O=c1[nH]cnc2scc(-c3ccsc3)c12,1%,-4%,-13
1.9%,Cc1occc1-c1nnc(SCC(=O)N(C)c2ccccc2)n1C,6%,nt,nt
4.0%,COc1ccccc1CNC(=O)c1nn(C)c2c1CS(=O)(=O)c1ccccc1-2,5%,-1%,nt
?,CC(C)CCOCc1nc2sc3c(c2c(=O)[nH]1)CCC(C)C3 (stereo not drawn),0%,-12%,5
4.0%,CC1CCCC1/C(=N/O)c1ccccc1 (stereo not drawn),0%,3%,nt
4.1%,O=C(/C=C/c1ccccc1)N1CCC(c2ccccc2)C1 (stereo not drawn),6%,-55%,-16
-0.2%,CCOC(=O)/C(N=Nc1c(Br)cc(Br)cc1Br)=C(\C)O,-18%,-10%,-13
-0.3%,O=C(CCS(=O)(=O)Cc1ccccc1)N1CCN(c2ccc([N+](=O)[O-])cc2)CC1,4%,-6%,-17
-2.1%,CC1CCC2(CC1)NC(=O)N(CC(=O)N1CCN(S(=O)(=O)c3ccccc3)CC1)C2=O (stereo not drawn),7%,0%,5
0.2%,O=C(O)C1C2CCC(C2)C1C(=O)NCc1ccccn1 (stereo not drawn),9%,-1%,-5
-0.3%,COc1cccc(CC(=O)OCC(=O)N2CCN(c3ccc(F)cc3)CC2)c1,1%,-1%,nt
-1.2%,O=C(Nc1ccc(Br)cc1)N1CCc2ccccc2C1,0%,-42%,nt
-2.8%,COc1ccc(C2CC(c3ccccc3)Nc3nc(N)nn32)cc1 (stereo not drawn),-2%,-6%,6
3.4%,COc1ccc(OC)c(-c2nc(C(=O)NC3CCN(Cc4ccccc4)CC3)cc3c2[nH]c2ccccc23)c1,-1%,3%,nt
2.3%,COc1cc(Nc2c3c(nc4ccccc24)CCCC3)cc(OC)c1OC,-13%,11%,-5
-0.8%,Cc1ccc(-c2csc(N(C)C(=O)c3c(C)nn(-c4ccccc4)c3Cl)n2)cc1,3%,-9%,-7
0.0%,Cc1cccc(Cn2c(C(C)(C)C)cc3cccnc32)c1,-6%,22%,-13
?,O=C(Nc1nccs1)c1cc(N2CCOCC2)nc2ccccc12,?,13%,-3
-2.7%,CSc1ccc(S(=O)(=O)Nc2ccc3c(c2)OCCO3)cc1,-5%,1%,2
?,Cc1ccc(NC2=CC(=O)CC(C)(C)C2)cc1Cl,?,-5%,nt
1.5%,Nc1n[nH]c(N)c1N=Nc1ccc2c(c1)OCO2,-11%,-18%,-3
0.0%,Cc1ccc(OCc2cc(C(=O)N(C)Cc3cnc4ccccn34)no2)cc1C,-16%,8%,nt
-2.3%,CCCCN1C(=O)N(c2ccccc2Cl)C(C)(O)CC1(C)C (stereo not drawn),0%,1%,nt
-1.0%,Cc1ccc(NC(=O)CC2Oc3ccccc3NC2=O)c(C)c1 (stereo not drawn),17%,-8%,-2
1.6%,O=C(Cc1c(F)cccc1Cl)NNC(=O)c1cccs1,20%,nt,nt
-0.9%,Cc1nc(NCCCn2ccnc2)c2ccccc2n1,3%,4%,0
-4.2%,CCOC(=O)c1nc(C)n(-c2cc(Cl)ccc2Cl)n1,22%,-8%,5
-3.8%,Cc1c(CCO)c(=O)[nH]n1S(=O)(=O)c1ccc(Cl)cc1Cl,2%,-8%,nt
0.3%,CCOC(=O)C1CCN(C(=O)Cc2cccs2)CC1,-5%,-1%,-7
2.1%,O=C(O)Cc1ccc(S(=O)(=O)Nc2ccccc2C(=O)O)cc1,0%,1%,-5
7.9%,COc1ccc(C(C(=O)NC2CCCCC2)N(C(=O)CCl)c2cccc(Cl)c2)cc1 (stereo not drawn),5%,4%,-1
-0.7%,Cc1ncoc1C(=O)Nc1ccc2c(c1)OCCO2,0%,-24%,-1
0.7%,CCCc1ccc(OCc2ccc(C(=O)N/N=C/c3cccc([N+](=O)[O-])c3)o2)c(OC)c1,-8%,-4%,1
-0.2%,COc1cc(C(=O)Nc2ccc(-c3nnc(-c4ccco4)o3)cc2)cc(OC)c1OC,-15%,-23%,11
3.2%,COc1ccc(S(=O)(=O)N(CC(=O)N2CCN(C)CC2)c2ccc(C)cc2)cc1OC,-15%,-5%,12
-1.3%,COc1ccc(Nc2cc(C)nc3ncnn23)cc1,-15%,nt,nt
-0.6%,CC(=O)Cc1c(C(=O)O)c(C)nn1-c1ccccc1,1%,4%,-7
-1.1%,CC(=O)NC(Cc1ccccc1)C(=O)N1CCN(C(=S)NCC(C)C)CC1 (stereo not drawn),11%,0%,2
-1.0%,CC(=O)Nc1nnc(-c2ccc3c(c2)CCCC3)o1,-9%,-42%,-2
?,CCN=C1S/C(=C\c2cn(CC(=O)NCc3ccco3)c3ccccc23)C(=O)N1CC,-11%,-6%,nt
nt,CCOc1ccc(-n2c(Cc3cc(=O)[nH]c(=O)[nH]3)nnc2SC(C)C(=O)OC)cc1 (stereo not drawn),nt,-4%,-4
-0.5%,COCCNC(=O)c1ccc(CS(=O)(=O)c2ccccc2)o1,10%,-10%,3
?,O=C(NCc1cccnc1)Nc1cccc(F)c1,11%,-11%,5
-3.6%,COc1cccc(NC(=O)CN2C(=O)COc3ccc(C)cc32)c1,12%,7%,nt
0.7%,COc1ccc(-c2sc3ccc(OC)cc3c2-c2ccc(O)cc2)cc1,3%,nt,nt
1.8%,O=c1c2cnn(-c3ccc(F)cc3)c2ncn1Cc1ccc(F)cc1,-9%,-1%&-10%,0
-0.2%,Cc1csc(NC(=O)CSc2ccc([N+](=O)[O-])cn2)n1,-14%,-4%,nt
-2.1%,O=S(=O)(NCc1cccnc1)c1ccccc1,4%,-5%,2
-0.5%,Cc1cc(C)n(CC(O)Cn2ccc3ccccc32)n1 (stereo not drawn),-12%,-6%,5
-1.7%,S=C(NCc1cccnc1)Nc1cccc2ccccc12,-11%,5%,-3
-3.1%,CCOc1ccc(Nc2nc(NCC(=O)O)nc(N)c2[N+](=O)[O-])cc1,0%,-3%,nt
3.9%,CCOc1ccccc1NC(=O)COC(=O)C1CC(=O)N(c2c(C)cccc2C)C1 (stereo not drawn),0%,-1%,nt
6.5%,OCC1(Cc2ccccc2)CCCN(Cc2ccc3c(c2)OCCO3)C1 (stereo not drawn),10%,-7%,1
-0.6%,CCCCOn1c(C)c(C(C)=O)c2c3no[n+]([O-])c3ccc21,6%,5%,nt
-2.8%,COc1ccc(Cl)cc1NC(=O)CN(C)C(=O)c1cc2ccccc2cc1OC,-6%,nt,nt

Continued:
Rango-impB inh,Structure,Rango release inh,miR-21 reporter,GLA inh pH 4.5
5.3%,Cc1ccc(S(=O)(=O)C2(C(=O)NC3CCCC3)CC2)cc1,-3%,-11%,-4
0.0%,CCOc1cc(C(=O)Nc2cc3c(cc2N2CCOCC2)n(C)c(=O)n3C)cc(OCC)c1OCC,-18%,-9%&-7%,nt
1.2%,Cc1ccc(NC(=O)N2C3CCCC2CC(NC(=O)C(C)(C)C)C3)cc1 (stereo not drawn),-8%,-1%,nt
-4.0%,COc1ccccc1CCC(=O)OCC(=O)NC1CC1,0%,nt,nt
1.9%,O=C(CCn1c(=O)oc2ccccc21)n1c(=O)oc2ccccc21,5%,-4%,-9
-0.1%,COc1ccc(C(N)CCc2ccco2)cc1 (stereo not drawn),-18%,-4%,-6
6.7%,COc1nsnc1NS(=O)(=O)c1ccc(NC(=S)NC(=O)c2cccnc2)cc1,-9%,2%,5
5.1%,O=C(CN1CCN(c2ccc(F)cc2)CC1)NCC1CCCO1 (stereo not drawn),9%,-1%,-27
-0.8%,CCC(C)Sc1ccc([C@@H]2[C@H]3C(=O)N(C)C(=O)[C@H]3[C@]3(C(=O)OC)CCCN23)cc1 (stereo partly drawn),-3%,nt,nt
4.4%,O=C1NC(c2ccccc2)CCO1 (stereo not drawn),1%,2%,nt
0.1%,Cc1c(C(=O)OCC(C)(C)CN(C)C)oc2ccccc12,8%,-32%,-8
1.1%,COC(=O)c1ccccc1NS(C)(=O)=O,-17%,nt,nt
0.8%,Cc1nc([N+](=O)[O-])c(Br)n1CC(=O)c1ccc2ccccc2c1,0%,?,-7
-1.9%,COc1cc(/C=N/NC(N)=S)ccc1OCc1ccc(C)cc1,13%,-19%,-6
0.3%,O=C(c1ccc(OC2CCN(C/C=C/c3ccccc3)CC2)cc1)N1CCCCC1,0%,-2%,nt
-0.5%,CC1=NN(c2ccccc2)C(=O)C1C(=O)C(=O)Nc1ccc(F)cc1 (stereo not drawn),16%,-49%,2
0.8%,O=C(c1ccccc1)N1N=C(c2ccccc2O)CC1c1ccc(Br)cc1 (stereo not drawn),21%,-4%,nt

Source: PubChem (National Center for Advancing Translational Sciences (NCATS))
